# Compound activity: PubChem BioAssay, several laboratories
# MT1-MMP reporter – MT1-MMP gene expression reporter suppression – cell-based, luciferase reporter, luminescence (AID 618) | 0.62% of 87,000 active | MT1-MMP promoter luciferase reporter cells, luminescence | calls from a first round at 10 µM; hits with a dose series show EC50 in µM;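 active means over half of the reporter light lost at 10 µM or EC50 under 50 µM; inactive means the rest and hits that failed the dose series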;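 further: actives suppress MT1-MMP promoter-driven transcription so potencies describe inhibitors; HT1080 fibrosarcoma cells; overnight exposure; toxic or luciferase-blocking compounds were not removed from the actives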
# WNV protease inh – blocks West Nile virus NS2B-NS3 protease activity | WNV NS2B-NS3 protease, fluorogenic substrate Ex360/Em465; hits give low values | P06935 | z-score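 (tested at a level between 10 and 100 µM)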 | 0.18% of 65,000 active;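 active means z-score at -3 or under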;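 further: score is relative to mean and spread of the compound wells of a plate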
# Target sequence (P06935 1371-1501 limits assumed): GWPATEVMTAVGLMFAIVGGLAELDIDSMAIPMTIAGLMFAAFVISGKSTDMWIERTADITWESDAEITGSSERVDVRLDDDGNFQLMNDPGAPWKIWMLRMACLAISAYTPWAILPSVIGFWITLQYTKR
# Target sequence (P06935 1502-1679 limits assumed): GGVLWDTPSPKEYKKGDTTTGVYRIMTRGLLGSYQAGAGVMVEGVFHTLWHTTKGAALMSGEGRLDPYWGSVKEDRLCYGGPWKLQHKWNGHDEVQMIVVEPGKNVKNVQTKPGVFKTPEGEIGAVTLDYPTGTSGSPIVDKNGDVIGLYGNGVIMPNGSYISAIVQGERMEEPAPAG
# The depositor's hits bear a star; i = inactive; · = not tested or not shown.
# Start of the data: the first 2 entries (preview)
mol	MT1-MMP reporter	WNV protease inh
Cn1c(O)c(C=NCCc2c[nH]c3ccccc23)c(=O)n(C)c1=O	·	-1.6
CCOC(=O)c1c(C)n(Cc2ccco2)c2ccc(O)cc12	·	-0.6

# All compounds of this part, from the first entry:
mol	MT1-MMP reporter	WNV protease inh
Cn1c(O)c(C=NCCc2c[nH]c3ccccc23)c(=O)n(C)c1=O	·	-1.6
CCOC(=O)c1c(C)n(Cc2ccco2)c2ccc(O)cc12	·	-0.6
Cn1ncnc2c(=O)n(C)c(=O)nc1-2	·	-0.47
CCn1nc(-c2ccccc2)nc2c(=O)n(C)c(=O)nc1-2	·	-0.24
COc1ccc(CN2CCN(c3ccccc3F)CC2)c(OC)c1	·	0.13
Cn1c2ccccc2c2c(C(=O)N3CCC4(CC3)OCCO4)cn(C3CCCC3)c(=O)c21	·	-0.42
Cc1cccc(-n2c(CN3C(=O)c4ccccc4C3=O)nc3ccccc3c2=O)n1	·	-0.02
O=C(c1ccco1)c1cn(Cc2ccc(Cl)cc2)c2ccccc12	i	·
O=C(Cn1cnc2sc3c(c2c1=O)CCCC3)NCCCC(=O)N1CCC2(CC1)OCCO2	i	·
CCCN1[C@@H]2C[C@@H](O)CC[C@@H]2C[C@H]1C(=O)OC	i	·
Cc1ccc(-c2nc(N(C)C3CCN(C)CC3)c3ccccc3n2)cc1	i	·
O=C(COc1ccc2ccccc2c1)N1CCN(CC2CC3C=CC2C3)CC1 (stereo unspecified)	i	·
CC1CN(CCc2ccccc2)CC(C)O1 (stereo unspecified)	i	·
C[C@@]1([C@@H](NP(=O)(c2ccccc2)c2ccccc2)c2ccccc2)C[C@H]1CCO	i	·
Cc1ccccc1C(O)(Cc1ccccc1)C1CN2CCC1CC2 (stereo unspecified)	i	·
Cc1ccc(N)c(C(=O)c2ccccc2)c1	i	·
COC(=O)[C@@]1(Cc2ccccc2)[C@H]2c3cc(C(=O)N(C)C)n(C)c3C[C@H]2CN1C(=O)c1ccccc1	i	·
COc1ccccc1CC1C(=O)C2CCN1CC2 (stereo unspecified)	i	·
O=C(Cc1ccccc1)OCCNC(=O)c1cccnc1	i	·
CN(Cc1ccccc1)C(=C(Cl)Cl)/C(=C1/NCCN1Cc1ccc(Cl)nc1)[N+](=O)[O-]	i	·
c1ccc2c(CNC3CCCCCC3)c[nH]c2c1	i	·
CCCc1cc2c(n1Cc1cccc(Cl)c1)C(C)C1CN(C(=O)c3ccccc3)C(C)(C(=O)OC)C21 (stereo unspecified)	i	·
O=C(O)[C@@H]1C[C@H]1[C@@H](NP(=O)(c1ccccc1)c1ccccc1)c1ccccc1	i	·
CCC1(CC)C(=O)N(Cc2ccccc2)C(=O)N(Cc2ccccc2)C1=O	i	·
CCCCSC1=NN1c1nc(N)nc(C)c1CC	i	·
CCn1cc(C(=O)c2ccccc2)c2ccccc21	i	·

# 3 of these compounds, reformatted.
# Under each structure: MT1-MMP reporter	WNV protease inh
CCCCSC1=NN1c1nc(N)nc(C)c1CC
 : i	·
O=C(O)[C@@H]1C[C@H]1[C@@H](NP(=O)(c1ccccc1)c1ccccc1)c1ccccc1
 : i	·
CCn1cc(C(=O)c2ccccc2)c2ccccc21
 : i	·

# Part of the list above, field by field.
c1ccc2c(CNC3CCCCCC3)c[nH]c2c1
  MT1-MMP reporter = i	WNV protease inh = ·

CCn1cc(C(=O)c2ccccc2)c2ccccc21
  MT1-MMP reporter = i	WNV protease inh = ·

CCC1(CC)C(=O)N(Cc2ccccc2)C(=O)N(Cc2ccccc2)C1=O
  MT1-MMP reporter = i	WNV protease inh = ·

O=C(O)[C@@H]1C[C@H]1[C@@H](NP(=O)(c1ccccc1)c1ccccc1)c1ccccc1
  MT1-MMP reporter = i	WNV protease inh = ·

# This is a subset; count on the stated rates, not on these rows.
